High-throughput results deposited in PubChem by National Center for Advancing Translational Sciences (NCATS).
A647 fluor: compound autofluorescence in A647 spectral region. max dye-equivalent concentration, M. 59,000 tested, under 10 active. Compound fluorescence, A647 channel (570/671 nm), Tris buffer; active means above 1 µM dye equivalent; inconclusive means 0.1 to 1 µM; inactive means 0.1 µM or less;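 also: values scaled relative to a standard on each plate; highest value over a series up to 38 µM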
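Spectral profiling of library compounds in pH 8.0 Tris: 15 min room-temperature incubation, single ex/em pair (570/671 nm), response normalized to Alexa 647 equivalents.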
TSHR agonist: TSH receptor (human) agonism; Potency, µM (series often up to 57.1 µM), inactives show top-dose activation, usual class: activators; hit rate 0.48% among 73,000; HEK293-CNG-TSHR cells (CNG channel as cAMP sensor), membrane potential dye, cAMP; active = well fitted activation curve of enough size with the parental cells flat; inconclusive = any curve in the parental cells; inactive = parental cells flat and receptor cells flat or falling; also: potency is read from the fitted curve at half-maximal effect; % of control where 0% means no effect; weak receptor curves with flat parental cells got no call and are not listed
Target sequence (P16473 whole entry, looked up): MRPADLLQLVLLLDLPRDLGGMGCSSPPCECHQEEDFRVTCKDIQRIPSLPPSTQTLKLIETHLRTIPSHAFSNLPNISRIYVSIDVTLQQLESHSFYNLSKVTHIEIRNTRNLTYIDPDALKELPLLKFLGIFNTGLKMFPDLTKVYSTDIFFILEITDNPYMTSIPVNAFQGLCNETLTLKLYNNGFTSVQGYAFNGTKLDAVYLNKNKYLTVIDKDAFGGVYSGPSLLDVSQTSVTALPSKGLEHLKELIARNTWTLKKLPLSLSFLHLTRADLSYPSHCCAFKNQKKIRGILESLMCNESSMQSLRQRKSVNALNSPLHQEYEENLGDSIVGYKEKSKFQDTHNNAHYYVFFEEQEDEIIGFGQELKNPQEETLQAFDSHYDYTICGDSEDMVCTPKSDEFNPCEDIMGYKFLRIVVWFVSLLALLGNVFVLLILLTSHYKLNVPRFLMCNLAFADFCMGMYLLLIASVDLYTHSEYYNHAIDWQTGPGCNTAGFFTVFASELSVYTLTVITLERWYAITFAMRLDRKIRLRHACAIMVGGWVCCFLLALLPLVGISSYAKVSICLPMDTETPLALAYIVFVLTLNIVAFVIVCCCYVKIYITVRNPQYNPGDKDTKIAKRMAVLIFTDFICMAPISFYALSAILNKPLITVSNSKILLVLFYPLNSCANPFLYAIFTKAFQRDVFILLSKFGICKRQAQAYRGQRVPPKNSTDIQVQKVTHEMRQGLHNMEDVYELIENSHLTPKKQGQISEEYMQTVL
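HEK 293 cells stably expressing TSHR and a modified CNG channel, with CNG-only parental cells as counterscreen, were preloaded 60 min at room temperature with membrane potential dye containing 100 uM RO 20-1724. Compound exposure was 30 min, and depolarization was read as fluorescence at 590 nm.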
AID923: qHTS Assay for Allosteric/Competitive Inhibitors of Caspase-1: Spectroscopic Profiling in AFC Spectral Region; compound fluorescence, AFC spectral region (405/520 nm); almost no hit is shown here; Potency, µM (doses to about 57.5 µM), for inactives: top-dose fluorescence increase, hits mostly activators; hit rate 1.1% among 75,000; active = well fitted activation curve with a large enough effect; inconclusive = small, poorly fitted or top-dose-only effect;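 also: potency is read from the fitted curve at half-maximal effect; 0% is about no effect; scaled to a free AFC standard on each plate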
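Compound autofluorescence profiled at 405 nm ex/520 nm em during kinetic caspase 1 run (50 nM enzyme, 5 uM Ac-WEHD-AFC, HEPES pH 7.5, 10 mM DTT). Titration up to 57 uM; baseline from regression intercept, normalized to AFC standard curve.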
Resorufin fluor: resorufin region autofluorescence. max dye-equivalent concentration, M. hit rate 0.04% among 59,000. Compound fluorescence, resorufin region 547/598 nm, buffer; active compounds read high; active = above 10 nM dye equivalent; inconclusive = 1 to 10 nM; inactive = 1 nM or less; a few of its hits are not listed in these tables; also: highest value over a series up to 38 µM
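Read-out: intrinsic compound fluorescence at ex 547/em 598 nm after 15 min at RT in pH 8.0 Tris (100 mM). Values expressed as resorufin-equivalent concentration from per-plate standard series.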
A488 autofl: compound autofluorescence in A488 spectral region. compound autofluorescence, A488 spectral region, dye equivalency; active compounds read high. max dye equivalency, M. hit rate 0.1% among 59,000; active = above 10 nM dye equivalent; inconclusive = 1 to 10 nM; inactive = 1 nM or less; about half of its hits are not listed in these tables;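 also: highest value over a series up to 38 µM; compound alone in buffer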
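Intrinsic compound fluorescence is measured in 100 mM Tris buffer at pH 8.0 following 15 min incubation at room temperature. Intensities at 480 nm excitation/540 nm emission are calibrated to an on-plate A488 concentration series, giving dye-equivalent concentrations.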
Numbers without * were called inactive; i = inactive; ? = inconclusive; . = no result given; & = joins results of further samples; [ ] = remark or other dose. Only part of the results is shown (hit frequency here may not be typical).

SMILES	A647 fluor	TSHR agonist	AID923	Resorufin fluor	A488 autofl
C/C(NC(=O)c1ccccc1)=C1/C(=O)CC2C1C2(C)C (centres undefined)	.	?	-1.6%	.	.
O=C1c2ccccc2NC(c2ccc(F)cc2)N1Cc1ccco1 (centres undefined)	8.6e-09	?	8.1%	i	i
Cc1ccccc1-c1cncnc1NCc1ccccc1	1.1e-08	?	-0.7%	i	i
CN1C=CC=C/C1=C(\C#N)c1nc2ccccc2[nH]1	1e-09	-1.4%	-2.4%	i	i
COCCN(C(=O)Cn1nnc2ccccc21)C(C(=O)NC1CCCC1)c1cccc(OC)c1OC (centres undefined)	2.1e-09	?	-0.8%	i	i
CC(=O)OC[C@@H]1O[C@H](C/C=N\O[C@@H](C)c2cn([C@H](CO)Cc3ccccc3)nn2)C=C[C@@H]1OC(C)=O	.	-1.5%&-1.6%[11.4 µM]	-1.1%&-0.5%[11.5 µM]	.	.
COc1ccc(-n2nc(C(=O)Nc3ccc4c(c3)OCO4)c3c4ccccc4n(C)c3c2=O)cc1	4.07e-08	?	1.2%	i	i
COC(=O)CS(=O)(=O)c1cc(Br)cc2c1N(C(C)=O)CC2	1e-09	-2.8%	0.7%	i	i
COc1ccc(-n2cnc3c(cnn3CCC#N)c2=N)cc1	6.6e-09	-1.5%	0.0%	i	i
Cc1c(NC(=O)Nc2ccc(Cl)c(Cl)c2)c(=O)n(-c2ccccc2)n1C	.	11.0%	-0.3%	.	.
Cc1c(C(=O)O)c(-c2ccccc2)nn1-c1ccccc1	.	3.0%	-1.3%	.	.
CCCC(=O)Nc1ccccc1-c1nnn(CC(=O)Nc2ccc(OC)cc2)n1	1.73e-08	8.0%	-0.3%	i	i
CCOC(=O)c1[nH]c(C)c(C(=O)OCC(=O)N2CCCCC2C)c1C (centres undefined)	1.7e-09	2.8%	0.6%	i	i
Cc1cccn2cc(CCNS(=O)(=O)c3ccc4c(c3)OCCO4)nc12	.	?	2.3%	.	.
O=C(COC(=O)c1ccco1)Nc1ccc2c(c1)OCCO2	1.6e-09	0.8%	-2.5%	i	i
N=c1c[n+](N2CCOCC2)[n-]o1	8.1e-09&1e-09	13.3%	-2.2%	i	i
Cc1cc(NC(=O)CSc2nnc(-c3ccncc3)n2N)ccc1Br	4.73e-08	9.8%	-2.2%	i	i
O=C(Nc1ccc(N2CCN(C(=O)c3ccc(Cl)cc3)CC2)cc1)c1ccc(Br)o1	2.73e-08	-33.6%[inhibitor]	2.1%	i	i
CC(C)CN1CC[C@@]2(CCCN(C(=O)c3cccc(F)c3)C2)C1	2.47e-08	7.6%	-0.1%	i	i
S=C(S)N1CCCC1	2.8e-09	10.2%&-10.2%	-0.2%&1.5%	i	i
COc1cccc(NC(=O)CSc2nncn2N)c1	4.46e-08	14.0%	0.2%	i	i
CN1CCN(C(=O)c2cc3nc(-c4ccc(Cl)cc4)cc(C(F)(F)F)n3n2)CC1	.	3.1%[11.4 µM]	7.2%	.	.
Cc1cc(Cl)ccc1OCC(=O)Nc1ccccc1N1CCOCC1	1.9e-09	?	-1.5%	i	i
COc1cc(NC(=O)C2CCCN2C(=O)C2CCC(C)CC2)cc(OC)c1OC (centres undefined)	.	5.8%	-1.1%	.	.

In a second layout: entries from further up.
Below each SMILES – A647 fluor, TSHR agonist, AID923, Resorufin fluor, A488 autofl
> CN1CCN(C(=O)c2cc3nc(-c4ccc(Cl)cc4)cc(C(F)(F)F)n3n2)CC1
  ., 3.1%[11.4 µM], 7.2%, ., .
> Cc1cc(Cl)ccc1OCC(=O)Nc1ccccc1N1CCOCC1
  1.9e-09, ?, -1.5%, i, i

Remaining list, next part.
SMILES	A647 fluor	TSHR agonist	AID923	Resorufin fluor	A488 autofl
COc1ccc(S(=O)(=O)Nc2ccccc2C(=O)NCc2ccco2)cc1Br	1e-09	13.5%	1.9%	i	i
COc1ccc(Cn2c(CCC(=O)N3CCN(c4ccccn4)CC3)nc3ncccc3c2=O)cc1	.	?	1.2%	.	.
O=c1[nH]c2ccccc2c(=O)n1Cc1ccco1	1e-09	?	-0.5%	i	i
CC(C)CNc1cc(=O)n(C)c(=O)n1C	1e-09	-1.2%	-1.0%	i	i
COc1cc(C(=O)Nc2cccc(-c3nc4ccccc4o3)c2C)cc(OC)c1OC	.	8.6%	-0.2%	.	.
CCCCNC(=O)OCC(CC)NC(=O)OC(C)C (centres undefined)	3.58e-08	10.1%	1.2%	i	i
O=C(NCc1ccccc1)NC1(C(=O)N2CCOCC2)CCCCC1	1e-09	-1.5%	-0.4%	i	i
CCCc1cc2c(n1Cc1ccc(OC)cc1)C(C)C1CN(C(=O)c3ccccc3)C(C)(C(=O)OC)C21 (centres undefined)	.	4.7%	1.3%	.	.
Cc1noc(C)c1S(=O)(=O)Nc1ccc(C(=O)NC2CCCCCC2)cc1	2.8e-09	-0.6%	-1.0%	i	i
CCSc1nnc(NC(=O)C(C)(C(F)(F)F)C(F)(F)F)s1	1e-09	.	.	i	i
Cc1noc(C)c1-c1nc(N(C)Cc2ccco2)c2ccccc2n1	2.42e-08	0.4%	0.4%	i	i
CC1(C)C(=O)OC(c2c(F)c(F)c(F)c(F)c2F)C2(CCCCC2)C1=O (centres undefined)	4.8e-09	29.8%	0.5%	i	i
O=C(O)CSc1nnc(Cn2nnc3ccccc32)n1CCc1ccccc1	3.06e-08	3.9%[11.4 µM]	-1.4%	i	i
O=C(N[C@@H](c1ccccc1)[C@@H]1C[C@H]1C(=O)NCc1ccccn1)OCc1ccccc1	.	15.9%	-3.0%	.	.
CCOc1ccccc1C(=O)Nn1c(C2CCC2)nc2ccccc2c1=O	1.4e-08	?	-2.0%	i	i
Cc1ccccc1C(=O)Nc1ccccc1	.	9.3%	-0.8%	.	.
COc1ccc(Cl)c(NCCC(=O)O)c1	1e-09	8.6%	1.9%	i	i
COc1cccc(-c2nc(NCc3cccs3)c3ccccc3n2)c1	1e-09	.	6.6%	i	i
COC(=O)[C@@]1(Cc2ccccc2)[C@H]2c3cc(C(=O)N4CCCC4)n(Cc4cccc5ccccc45)c3C[C@H]2CN1C(=O)c1ccccc1	.	?	1.6%	.	.
CS(=O)(=O)Nc1ccc(S(=O)(=O)Nc2nccs2)cc1	2.21e-08	2.0%	-0.1%	i	i
CN(C)c1ccc(-c2nccc(Nc3ccc(F)cc3)n2)cc1	2.66e-08	-0.2%	6.4%	i	i
O=C(NC(Cc1ccccc1)c1nc2ccccc2[nH]1)C1CC(=O)N(c2ccc3c(c2)OCCO3)C1 (centres undefined)	2.8e-09	2.5%	-0.1%	i	i
O=C(c1ccccc1)c1ccc2nc[nH]c2c1	1e-09	-2.6%	-0.8%	i	i
O=C1c2cccnc2C(O)N1C1CCCCC1 (centres undefined)	1e-09	1.5%	-0.6%	i	i

Grouped by structure, the entries above with an NH in an aromatic ring (5)
SMILES	A647 fluor	TSHR agonist	AID923	Resorufin fluor	A488 autofl
CN1C=CC=C/C1=C(\C#N)c1nc2ccccc2[nH]1	1e-09	-1.4%	-2.4%	i	i
CCOC(=O)c1[nH]c(C)c(C(=O)OCC(=O)N2CCCCC2C)c1C (centres undefined)	1.7e-09	2.8%	0.6%	i	i
O=c1[nH]c2ccccc2c(=O)n1Cc1ccco1	1e-09	?	-0.5%	i	i
O=C(NC(Cc1ccccc1)c1nc2ccccc2[nH]1)C1CC(=O)N(c2ccc3c(c2)OCCO3)C1 (centres undefined)	2.8e-09	2.5%	-0.1%	i	i
O=C(c1ccccc1)c1ccc2nc[nH]c2c1	1e-09	-2.6%	-0.8%	i	i

Going on with the list:
SMILES	A647 fluor	TSHR agonist	AID923	Resorufin fluor	A488 autofl
COc1ccc(OC)c(N(CC(=O)Nc2ccc3c(c2)OCCO3)S(C)(=O)=O)c1	.	14.0%	-1.8%	.	.
Cc1cc(C)c(C)c(OCCOCCN2CCOCC2)c1	.	9.6%	-2.2%	.	.
Cc1ccc2c(c1)C(C)(C)[C@]1(C)NC(=O)CCN21	1e-09	1.6%	2.3%	i	i
CCOCCCNC(=O)CCS(=O)(=O)Cc1ccc(C)cc1	1.78e-08	-5.5%	-1.0%	i	i
COc1ccc2nc3oc(C(=O)NC4CCN(Cc5ccccc5)CC4)cc3cc2c1	5.8e-09	11.6%	1.1%	i	i
CCCC(=O)c1ccc(N2CCN(S(=O)(=O)c3ccc(C)cc3)CC2)c(F)c1	3.1e-09	.	0.6%	i	i
COc1ccc(OCCCN2CCCC(C)C2)cc1 (centres undefined)	1e-09	7.8%	1.5%	i	i
COc1cc(CN2CCN(c3cccc(C)c3C)CC2)cc(OC)c1O	.	7.5%	1.4%	.	.
COc1cccc(CN2CCN(C(=O)CC(C)C)CC2)c1	.	3.3%	-1.1%	.	.
O=C(O)c1ccc(Br)c(S(=O)(=O)N2CCCC2)c1	.	7.4%[11.4 µM]	1.7%	.	.
CCOc1cc(C2C(C(=O)N3CCCCC3)=C(C)NC3=C2C(=O)CC(C)(C)C3)ccc1O (centres undefined)	9.9e-09	0.9%	1.6%	i	i
CC1(C)Cc2ccccc2C(N)=C1C#N	.	0.5%[11.4 µM]	-1.6%	.	.
CCOC(=O)N1CCN(Cc2ccccc2Cl)CC1	6.6e-09	0.9%	0.3%	i	i
CCc1ccccc1-n1c(SCC(=O)N2CCCC2)nnc1-c1ccccn1	4.22e-08	0.5%	-0.8%	i	i
COc1cc2c3c(c1)C1(C(=O)N3C(C)(C)C=C2C)C(C#N)=C(N)Oc2cc(O)ccc21 (centres undefined)	2.67e-08	22.7%	1.7%	i	i
COc1ccc2[nH]c(C(=O)O)c(CCNC(C)=O)c2c1	1e-09	-2.6%	0.9%	i	i
COC(=O)c1ccc(CSc2nccn2C)cc1	2.47e-08	4.7%	-1.2%	i	i
N#Cc1nc(-c2ccccc2F)oc1N1CCCC1	1e-09	22.0%	1.0%	i	i
O=C(COc1ccc2c3c(c(=O)oc2c1)CCC3)NC1CCCCC1	4.14e-08	28.0%	0.1%	i	i
CCOC(=O)c1cc(=O)cc(C(=O)OCC)o1	3.8e-08	-6.5%	0.2%	i	i
Cc1cccc(NC(=O)c2cnc3sccn3c2=O)c1	.	36.6%	2.7%	.	.
CCc1nnc(NC(=O)CSc2nnc(Cc3ccccc3)n2-c2ccc(OC)cc2)s1	1e-09	11.1%	0.6%	i	i
O=C(CCCn1c(=S)[nH]c2ccccc2c1=O)N1CCOCC1	1e-09	-2.7%	-0.6%	i	i
Cc1cc(NC(=O)CSc2ccc(Cl)cc2)no1	2.35e-08	0.7%[11.4 µM]	-1.4%	i	i
CSc1ccc(S(=O)(=O)Nc2cccc(F)c2)cc1	1e-09	8.4%	1.5%	i	i
O=C(O)C1CCC(=O)N1C1c2ccccc2Oc2ccccc21 (centres undefined)	.	-13.6%	0.2%	.	.
COc1cc(OC)c(C2=NOC(C(=O)O)C2)cc1Cl (centres undefined)	1e-09	25.5%	0.6%	i	i
Cc1ccc(SCc2c(C#N)c3ccccc3n2C)cc1	1e-09	.	.	i	i
CCCCC(=O)N1CCCC(c2nc3c(nnn3Cc3cc(C)ccc3C)c(=O)[nH]2)C1 (centres undefined)	6.3e-09	2.3%	4.8%	i	i
CN(Cc1nc(-c2ccncc2)no1)S(=O)(=O)c1ccccc1	1e-09	9.2%	1.5%	i	i
COc1ccc(C)cc1NC(=O)CNC(=O)Cn1ccc2ccccc2c1=O	1e-09	-6.6%	-0.8%	i	i
CC(CN1CCOCC1)C(=O)O (centres undefined)	2.6e-09	0.1%	0.1%	i	i
CCOC(=O)CC(=O)CSc1ccc2nnc(-c3ccc(C)cc3)n2n1	1e-09	-3.5%[11.4 µM]	-0.4%	i	i
COC(=O)[C@@]1(Cc2ccc(F)cc2)[C@H]2c3cc(C(=O)N(C)C)n(Cc4ccc(OC(F)(F)F)cc4)c3C[C@H]2CN1C(=O)c1ccccc1	.	?	-1.8%	.	.
Cc1cccc(Cn2c(N3CCN(c4ccccc4)CC3)nc3c2c(=O)n(C)c(=O)n3C)c1	2.44e-08	?	-2.5%	i	i
